Compound activity deposited in PubChem by National Center for Advancing Translational Sciences (NCATS).
NPR1 antag: antagonists of human natriuretic peptide receptor Npr1; 76,000 compounds, 1.6% hits; P16066; Potency, µM (series often up to 46.3 µM), for the others: top-dose activity change, negative = inhibition, usual class: inhibitors; HEK293 hNpr1 GloSensor cGMP, ANP-stimulated luminescence; active = well fitted inhibition curve with a large enough effect; inconclusive = small, poorly fitted or top-dose-only effect; inactive = no such curve, though single readings can be large or run the other way;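 further: nearly all actives have a fitted effect of over 60% in size; nearly all hits also lower the signal before the agonist is added; a reference antagonist and vehicle were the controls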
Target sequence (P16066 whole entry, looked up): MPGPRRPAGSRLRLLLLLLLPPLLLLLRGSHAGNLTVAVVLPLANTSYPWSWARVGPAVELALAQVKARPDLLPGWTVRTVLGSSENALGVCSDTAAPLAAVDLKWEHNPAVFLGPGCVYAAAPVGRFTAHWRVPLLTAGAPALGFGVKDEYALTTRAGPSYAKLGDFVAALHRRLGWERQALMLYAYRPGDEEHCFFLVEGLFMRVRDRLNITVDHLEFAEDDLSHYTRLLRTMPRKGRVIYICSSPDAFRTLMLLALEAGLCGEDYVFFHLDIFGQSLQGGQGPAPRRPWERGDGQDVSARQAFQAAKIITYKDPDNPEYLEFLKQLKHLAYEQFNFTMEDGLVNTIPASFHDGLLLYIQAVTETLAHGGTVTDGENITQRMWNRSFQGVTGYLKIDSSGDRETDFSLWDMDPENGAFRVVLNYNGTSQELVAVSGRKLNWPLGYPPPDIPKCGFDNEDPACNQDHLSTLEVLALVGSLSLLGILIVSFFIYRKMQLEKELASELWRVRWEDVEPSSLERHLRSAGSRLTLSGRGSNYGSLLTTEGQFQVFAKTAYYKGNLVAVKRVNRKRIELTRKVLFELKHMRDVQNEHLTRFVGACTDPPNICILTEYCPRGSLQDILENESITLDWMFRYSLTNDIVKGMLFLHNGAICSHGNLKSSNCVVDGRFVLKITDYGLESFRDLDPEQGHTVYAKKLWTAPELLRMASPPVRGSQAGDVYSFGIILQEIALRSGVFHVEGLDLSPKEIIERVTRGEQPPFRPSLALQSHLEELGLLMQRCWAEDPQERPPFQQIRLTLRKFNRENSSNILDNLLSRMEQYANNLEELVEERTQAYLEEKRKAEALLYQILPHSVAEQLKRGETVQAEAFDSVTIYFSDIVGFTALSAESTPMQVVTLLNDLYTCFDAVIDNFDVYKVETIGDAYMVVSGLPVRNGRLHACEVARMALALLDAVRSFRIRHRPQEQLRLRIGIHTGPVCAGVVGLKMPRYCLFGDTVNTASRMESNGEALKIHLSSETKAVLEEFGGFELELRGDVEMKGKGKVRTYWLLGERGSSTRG
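Compound pre-incubated 30 min at room temperature on GloSensor-loaded HEK293 cells stably carrying hNpr1 and the pGS-40F cGMP biosensor. Stimulation uses hNppA at 0.1 nM final; luminescence is taken at baseline and 20 min post-agonist.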
An asterisk follows results filed as active; ? = inconclusive; [ ] = dose if it differs, or a comment. On the % scale 0 is the no-effect control and ±100 the full control effect; potency means the concentration at half of the fitted maximal effect. Not all compounds are listed; the hit share may differ from the screen's.

No.	mol	NPR1 antag
1	Cc1ccc(NC(=O)N2CCC(n3cnnc3C3CC3)C2)cc1Cl (stereo unspecified)	-0.2%
2	O=C(NCc1ccccn1)c1ccc2c(c1)CC(=O)N2Cc1ccc(F)cc1	1.5%
3	Cc1ncoc1C(=O)N1CCCC1C(=O)Nc1cccc(-c2ccc(F)cc2)c1 (stereo unspecified)	-26.9%
4	COc1ccc(C(=O)N[C@@H]2CN(C)C[C@H]2CN(C)C)cc1OC	1.8%
5	O=C(c1ccc(C(F)(F)F)cc1)N1CCC2(CC1)CC(c1cccc(C(F)(F)F)c1)=NO2	-26.2%
6	O=C(NCc1cccs1)c1csc(N2CCN(c3ccccc3F)CC2)n1	-27.6%
7	CCCn1cnc2c1CN(S(=O)(=O)Cc1ccccc1)[C@H](C(=O)OC)C2	-0.2%[70.6 µM]
8	Cc1cnc(C(=O)NC2CCc3nn(CC4CC4)c(=O)n3CC2)cn1 (stereo unspecified)	3.7%
9	Cc1cnc(CC2CCCN(C(=O)NC(C)(C)C)C2)n1Cc1ccc(F)cc1 (stereo unspecified)	0.0%
10	Cc1nn2c(c1-c1ccccc1C(C)C)N(C(=O)Cc1ccc(O)cc1)CCC2	-2.0%[70.6 µM]
11	COc1cccc(-c2noc3c2CN(C(=O)c2ccc(C)cc2OC)CC3)c1	?
12	COc1ccc(-c2cc(-c3ccc(OC)c(OC)c3)cn3cncc23)cc1	-11.8%[70.6 µM]
13	Cc1ccc(C(=O)N2C[C@@H](Oc3cccnc3)C[C@H]2C(=O)N2CCOCC2)s1	-15.4%
14	Cc1noc(CN2CCN(c3nc(N)nc4c3CCC4)CC(O)C2)n1 (stereo unspecified)	-1.4%
15	CCO[C@H]1CN(C(=O)c2cc3ccc(OC)cc3n2C)C[C@@H]1O	-1.3%
16	CCCNC(=O)N1CCC(N2CC3CC(C2)[C@H]2CCCC(=O)N2C3)CC1 (stereo partly specified)	-11.8%
17	COCCNC(=O)C(NC(=O)CC(C)C)C1CCN(C(=O)c2ccc3c(c2)OCO3)CC1 (stereo unspecified)	3.2%
18	CCOCCn1c(=O)n(C(CC)C(=O)NC(C)(C)C)c2cc(C(=O)O)cnc21 (stereo unspecified)	2.9%
19	O=C1CO[C@H]2CCN(Cc3cccc(OC(F)(F)F)c3)CC[C@@H]2N1Cc1ccccc1	-1.7%
20	COc1ccc(NC(=O)c2cc3c(N(C)Cc4ccccc4)nc(C)cn3n2)cc1	5.8%
21	CCC(C)(C)NC(=O)Cn1c(C)ccc(NS(=O)(=O)CC)c1=O	6.3%
22	O=C(NC[C@H]1O[C@@H]2C[C@@H](CC(=O)N3CCOCC3)O[C@@H]2[C@@H]1O)Nc1cccc(Cl)c1	0.2%
23	Cc1cnc(C(=O)N[C@@H]2CN(c3ccncn3)C[C@H]2CN(C)C)cn1	1.4%
24	O=C1CCN(C(=O)c2ccoc2)CCCCCCN1	-0.6%
25	COc1cccc(-c2nc3cnccn3c2NCCC(=O)N2CCN(C)CC2)c1	0.9%

Sorted by value in NPR1 antag (descending): some entries from above
No.	mol	NPR1 antag
21	CCC(C)(C)NC(=O)Cn1c(C)ccc(NS(=O)(=O)CC)c1=O	6.3%
8	Cc1cnc(C(=O)NC2CCc3nn(CC4CC4)c(=O)n3CC2)cn1 (stereo unspecified)	3.7%
9	Cc1cnc(CC2CCCN(C(=O)NC(C)(C)C)C2)n1Cc1ccc(F)cc1 (stereo unspecified)	0.0%
14	Cc1noc(CN2CCN(c3nc(N)nc4c3CCC4)CC(O)C2)n1 (stereo unspecified)	-1.4%
6	O=C(NCc1cccs1)c1csc(N2CCN(c3ccccc3F)CC2)n1	-27.6%

Later entries:
No.	mol	NPR1 antag
26	CCOc1cc(=O)n2c(c1C(=O)Nc1cc(F)ccc1F)CCCC2	-0.6%
27	COc1cccc(CN2C[C@@H]3C[C@H]2C(=O)N(Cc2ccccc2)c2ccccc2O3)n1	-18.9%[70.6 µM]
28	O=C1CC(c2ccccc2)N(C(=O)CNC(=O)c2ccsc2)CCCCCCN1 (stereo unspecified)	3.5%
29	Cc1ccsc1C(=O)NC1CCN(c2cc(-c3ccc(Cl)cc3)[nH]n2)C1 (stereo unspecified)	-22.8%
30	CCn1c(C2CCCN(C(=O)NCC(C)C)C2)nn(C)c1=O (stereo unspecified)	-3.6%
31	COCC(=O)NC[C@H]1OC[C@@H](NCC(C)(C)C)[C@@H]1O	2.4%[70.6 µM]
32	O=C(c1cn2ccsc2n1)N1CC[C@H](CO)[C@@H](O)C1	5.8%
33	COc1ccc(CN2CCNc3cnc(OCc4cccnc4)cc3C2)cc1O	-3.7%[70.6 µM]
34	O=C1CC(c2ccccc2)N(C(=O)CNS(=O)(=O)c2cccs2)CCCCCN1 (stereo unspecified)	0.6%
35	Cn1nc(C2CCCN(C(=O)C3CCCC3)C2)n(Cc2ccccc2)c1=O (stereo unspecified)	3.2%
36	CC1=C[C@@H](CNS(C)(=O)=O)[C@H](C(C)C)C[C@H]1Cc1nnc(-c2ccncc2)o1	1.2%[70.6 µM]
37	CN(CC1CCN(CCc2cccc(F)c2)CC1)C(=O)COc1cccnc1	-0.5%
38	CC(C)CC(=O)N1CCC2(CC1)N(C)C(=O)CS2(=O)=O	1.5%
39	O=S(=O)(c1ccc(F)cc1)N1CCCC(Cc2noc(-c3ccncc3)n2)C1 (stereo unspecified)	-23.1%
40	Cc1ccc(CNC(=O)N2CCC(c3noc(-c4cccnc4)n3)C2)cc1 (stereo unspecified)	-1.2%
41	CCCn1c(C)c(CC(=O)NCC2CCCOC2)c2c1CC(C)(C)CC2=O (stereo unspecified)	3.0%
42	Cc1ccccc1-c1cc(C(=O)NCCN2CCNC2=O)c2c(c1)N(C)CCO2	-1.4%[70.6 µM]
43	COc1cccc(CC(=O)Nc2ccc3c(c2)CN(Cc2ccccc2)C(=O)C(C)O3)c1 (stereo unspecified)	-25.6%
44	COc1cc(F)ccc1-c1cn(C)c(=O)n2cc(CN3CCOCC3)nc12	3.0%[70.6 µM]
45	CCCCSc1nc(N)cc(N2CCCC(C(=O)N3CCOCC3)C2)n1 (stereo unspecified)	-3.3%
46	Cc1cccc(OCCc2noc(C3CN(C(=O)NCC4CCCO4)C3)n2)c1 (stereo unspecified)	-2.1%
47	CN1CCC(N2CC[C@@H]3C(=O)NCCCCCCN(Cc4ccncc4)[C@@H]3C2)CC1	1.8%
48	CCc1ccccc1NC(=O)N1CCC(Oc2ncccc2C(=O)N2CCCCC2)C1 (stereo unspecified)	1.8%
49	O=C(Cc1c[nH]c2ccccc12)N1CCC2(CC1)CC(CO)N(C(=O)c1ccccc1)C2 (stereo unspecified)	8.3%
50	O=C(c1cccs1)N1CCC(N2CC(OCC3CC3)C23CCOCC3)CC1 (stereo unspecified)	-0.2%

(next part)
No.	mol	NPR1 antag
51	COc1ccc(-c2noc(-c3cccn3CC(=O)Nc3cccc(F)c3)n2)cc1F	-14.5%
52	N#Cc1ccc(CN2CCCC(c3nc(-c4cnccn4)no3)CCNC(=O)CC2)cc1 (stereo unspecified)	0.0%
53	COc1ccc(C2C(C#N)=C(N)Oc3n[nH]c(C)c32)cc1 (stereo unspecified)	-9.0%
54	Cn1cccc1C(=O)N1C[C@@H](CO)[C@H](c2nc(C3CC3)no2)C1	4.7%
55	COc1ccc(C(=O)NC[C@H]2O[C@H](Cc3cc(COc4ccccc4)on3)CC[C@@H]2O)cc1	-0.1%
56	COc1ccc(C(=O)N2CCN(c3cc(-c4cccs4)[nH]n3)CC2)c(C)c1	11.2µM*
57	C#CCNC(=O)C[C@@H]1c2nc(NC(=O)c3c(F)cccc3F)sc2C[C@@H]2[C@](C)(CO)[C@H](O)CC[C@]21C	-0.4%
58	COc1cccc(NC(=O)NC[C@H]2O[C@@H](CO)[C@@H](O)[C@H]2N(C)CCN(C)C)c1	2.8%
59	O=C(c1ccc(OC2CCN(C(=O)C3CCOC3)CC2)nc1)N1CCOCC1 (stereo unspecified)	5.0%
60	O=C1COc2ccc(-c3ccoc3)nc2CN1Cc1ccccc1	?
61	O=C(c1ccn[nH]1)N1CCc2n[nH]c(=O)n2CC1	2.5%
62	Cc1cc(CN(C)C(=O)c2csc3nc(-c4cccc(C(F)(F)F)c4)cn23)on1	1.8%
63	CN1CCC(NC(=O)c2n[nH]c3c2CN(C(=O)c2ccc(F)cc2F)CC3)CC1	8.0%
64	Cc1ocnc1C(=O)N1CCc2nc(N)nc(N3CC[C@H](O)C3)c2CC1	19.0%
65	COc1cc(C)c2c(c1C)C[C@H]([C@H](C)C(=O)NC1CCCC1)CC2	?
66	CCCc1cnc(C)nc1N1CCC(c2nnc(CN(C)C)n2CC)CC1	0.3%
67	CC(C)(C)C1CCC2(CC1)NC(=O)N(CC(=O)NCc1ccc3c(c1)OCO3)C2=O (stereo unspecified)	0.2%
68	Cc1ccc2c(c1)nc1n2[C@@H](CNS(=O)(=O)c2ccccc2)COC1	31.6µM*
69	COc1ccc(-c2cc(N3CCCN(C(=O)c4ccc(NC(C)=O)cc4)CC3)n[nH]2)cc1	5.1%
70	COc1ccccc1C1CNC(=O)c2nc(-c3cc(C(C)(C)C)[nH]n3)[nH]c2C1 (stereo unspecified)	0.5%
71	COc1ccccc1-c1ccnc(-c2nnc(C)n2Cc2ccncc2)c1	-1.8%[70.6 µM]
72	OC(c1cccc(C(F)(F)F)c1)c1nc(Nc2cccc(Cl)c2)n[nH]1 (stereo unspecified)	?
73	CC(C)(C)CC(=O)N[C@H]1C[C@@H](Cc2cc(CN3CCN(c4ccccc4)CC3)on2)C1(C)C	2.82µM*
74	O=C(NCCc1ccccc1)c1nnn2c1COC(c1ccc(Br)cc1)C2 (stereo unspecified)	3.8%
75	O=C(NCc1ccnc2[nH]ccc12)c1cccc2[nH]ccc12	-25.8%[70.6 µM]

Continued.
No.	mol	NPR1 antag
76	CC(=O)N1C[C@@H]2CCCN3CCC[C@@H]([C@H]23)[C@H]1CCCC(=O)N1CCNC(=O)C1	0.4%
77	Cc1nc(C2CCN(C(=O)[C@@H](N)[C@@H](C)O)CC2)cc(N2CCOCC2)n1	7.3%
78	CCNC(=O)[C@@H]1C[C@H](N)CN1S(=O)(=O)c1ccc2ccccc2c1	11.1%
79	Cc1ccc(C2(O)CCN(C(=O)c3ccccc3-c3nn[nH]n3)CC2)nc1	-0.2%
80	O=C([C@H]1C[C@H](Oc2ccccc2)CN1C(=O)NCc1ccc(F)cc1)N1CCOCC1	16.2%
81	O=C(Nc1ccccc1Cl)N1CCC(n2cc(C3CCCC3)nn2)CC1	0.3%
82	Cc1ccc(C(=O)N2CCC3(CC2)NC(=O)N(c2ccccc2Cl)N3)c(C)c1	-10.1%
83	c1ccc(CO[C@H]2COCCN(c3nc4ccccc4o3)C2)cc1	-2.4%[70.6 µM]
84	COc1cccc(C(=O)NCCC2CCN(C(=O)Nc3cccc(F)c3)CC2)c1	0.4%
85	CC(C)c1ccc(C#N)c(N2CC[C@H](N3CCOCC3)[C@H](CCCO)C2)n1	-1.1%
86	COc1ccc(N2C(=O)C3(CCCCC3)C2C(=O)N2CCN(c3ccccn3)CC2)cc1 (stereo unspecified)	7.2%
87	O=C(NC1CCN(c2cc(-c3ccccc3)[nH]n2)CC1)C1CCCCC1	-1.1%
88	COc1ccccc1-c1cc(-c2ccsc2)c2onc(C)c2n1	-6.5%[70.6 µM]
89	CN(C)[C@H]1C[C@@H](Cc2cc(CCO)on2)C1(C)C	-1.3%[70.6 µM]
90	O=C(CN1C(=O)NC2(CCS(=O)(=O)CC2)C1=O)Nc1cc(F)cc(F)c1	3.6%
91	CC(=O)N1CC2(Cc3ccccc31)CN(C(=O)NC1CCCC1)C2	6.8%[70.6 µM]
92	COc1ccc(N2CC(c3noc(-c4cc(F)ccc4F)n3)CC2=O)cc1 (stereo unspecified)	9.5%
93	O=[S+]1([O-])NCC2(CCN(Cc3ccccc3)C2)Nc2ccccc21 (stereo unspecified)	32.2%[activator]
94	O=C(Nc1cccc(-c2nnc3n2CCCC3)c1)c1ccco1	-0.5%
95	Cc1cccc(C(=O)N2CCCCCCNC(=O)[C@@H]3C[C@@H](c4nc(-c5cnccn5)no4)C[C@@H]32)c1	-2.7%
96	COCC1CN(C(C)=O)CC12CCN(Cc1cccc(OC)c1)CC2 (stereo unspecified)	3.4%
97	O=C(O)CCC(=O)N[C@H]1CCN2C(=O)c3ccc(Cl)cc3NC(=O)[C@H]12	-7.8%[70.6 µM]
98	Cc1ccc(OCc2ccc(C(=O)N3C[C@H](C4CC4)[C@@H](N)C3)cc2)cc1	1.0%
99	CC(=O)N1CCC2(CC1)CC(N(Cc1ccc(F)cc1)C1CC1)CCO2 (stereo unspecified)	4.0%
100	c1cncc(-c2nc3ncccc3[nH]2)c1	30.1%[70.6 µM]

Following part
No.	mol	NPR1 antag
101	CN(C)CCO[C@H]1C[C@@H](O)C12CCN(C(=O)Cc1ccc3ccccc3c1)CC2	6.1%
102	O=C(CN1C(=O)NC2(CCS(=O)(=O)CC2)C1=O)Nc1ccccc1	-2.2%
103	C=CCNC(=O)O[C@@H]1CC[C@]2(C)C(CC[C@@H](O)[C@H]2CC(=O)NCc2ccc3c(c2)OCO3)[C@]1(C)CO (stereo partly specified)	6.0%
104	CCn1cc(CN2CCc3nn(CC4CC4)c(=O)n3CC2)cn1	0.6%
105	O=C(NCC1CN(CC2CC2)CC12CN(c1ccccc1)C2)Nc1ccccc1 (stereo unspecified)	-1.2%[70.6 µM]
106	N#Cc1ccc(CNC(=O)[C@@H]2Cc3nc[nH]c3CN2Cc2ccccc2)cc1	-2.6%[70.6 µM]
107	O=C(Cc1ccccc1Cl)Nc1ccc(-c2nnc3n2CCCC3)cc1	7.8%
